NPYLR7 ag: agonists of mosquito NPYLR7 receptor, primary screen, cell-based, Aedes aegypti, calcium fluorescence, mosquito biting behavior; activation, % at 10 µM; 270,000 tested, 0.15% active; Aedes aegypti neuropeptide Y-like receptor 7 (NPYLR7); HEK293T NPYLR7/Galpha15, GCaMP6s calcium fluorescence; in the data active = activation above about 40%;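 also: 0% = vehicle and 100% = reference agonist at the receptor; some compounds past the cut are filed as inactive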
NPYLR7 ag max-min: second read-out of NPYLR7 ag, no call of its own (marks repeat the call); activation, %; measured here: Max-Min RFU normalised activation; some inactives read as strong as hits;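 span of the calcium signal over five minutes; 0% = vehicle and 100% = native peptide agonist; compound fluorescence can raise it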
An asterisk follows results filed as active; & = joins results of further samples.

SMILES	NPYLR7 ag	NPYLR7 ag max-min
Cc1onc(-c2ccccc2Cl)c1C(=O)N(Cc1ccccc1)C(C)C	5	6
COc1ccc(OC)c(-c2cccc(-c3ccc(NC(=O)COc4ccccc4)cc3)n2)c1	29	35
CCOC(=O)CSc1nnc(C)c2cnn(-c3ccccc3)c12	-13	-19
COc1ccccc1CN(CCc1c[nH]c2ccccc12)C(=O)CN(C(=O)Nc1ccccc1OC)C(C)C	-1	4
CC1=C(C(=O)NCCN(C)C2CCCCC2)C2(CCCCC2)OC1=O	7	6
O=C(Nc1ccc(F)cc1)NC1CCN(C(=O)CCc2ccco2)CC1	13	8
COC(=O)Cc1cc(=O)[nH]c(N=C(NC(=O)c2ccccc2)Nc2ccccc2C)n1	-5	-13
CC(C)(O)C#Cc1ccc(C(=O)N2CCC3(CCCN(CC4CCCCC4)C3)C2)o1 (centres undefined)	3	1
O=S(=O)(O)CCC[n+]1c(C=Cc2ccc(C(F)(F)F)cc2)sc2ccccc21	2	0
CCCN(C)C(=O)c1ccc2c(c1)C(=O)N(c1ccc(OCC)cc1)C2=O	0	0
COC(=O)CSc1nc2sc3c(c2c(=O)n1Cc1ccccc1)CCCC3	0	22
COc1cc(C=Nn2c(-c3ccc(Cl)cc3)n[nH]c2=S)ccc1OC(C)=O	-8	-10
Cn1c2ccccc2n2c3cnc(N4CCOCC4)nc3c(=O)c(C#N)c12	-1	-4
Cn1ccsc1=NC(=O)C1(c2cccc(Cl)c2)CC1	16	10
O=c1c2c3c(sc2[nH]c(=S)n1Cc1ccco1)CCCC3	1	8
CC(C)c1cc(NC2CCCC2)n2ncc(-c3ccccc3)c2n1	-1	-3
O=C(NC(Cc1ccccc1)C(=O)Nc1nnc(-c2cccc(Br)c2)s1)c1ccc(F)cc1 (centres undefined)	-1	0
COc1ccc(S(=O)(=O)NCC2CCCO2)cc1N1CCN(C(=O)c2cc(Cl)cc(Cl)c2)CC1 (centres undefined)	-4	9
CCOc1ccc(S(=O)(=O)Nc2cc(Sc3ncn[nH]3)c(O)c3ccccc23)cc1	-10	-9
CN1CCN(Cc2cccc(NCc3cnn(C)c3)c2)CC1	-2	0
Cc1cc(NS(=O)(=O)c2ccc(NC(=O)c3cc4ccccc4oc3=O)cc2)no1	-6	-9
O=C(CN1CCc2sccc2C1c1cccs1)Nc1ccc(F)cc1F (centres undefined)	2	3
Cc1ccc(N2CN(CC(=O)N(C)C3CCCCC3)S(=O)(=O)c3cccnc32)cc1	-9	-10
CCN(CC(=O)N(C1CCC(C)CC1)C1CC1)CC(C)C#N (centres undefined)	-3	-4
CC1=NNc2nc3c(c(=O)n(CCCc4ccccc4)c(=O)n3C)n2C1	10	15

Next entries follow.
SMILES	NPYLR7 ag	NPYLR7 ag max-min
CN(C)S(=O)(=O)c1ccc(N=Nc2sc(N)nc2-c2cc(F)ccc2F)cc1	0&5	-3&3
O=C(NCc1ccncc1)c1coc(CN(CCc2c[nH]c3ccccc23)Cc2ccc(Cl)cc2)n1	19	16
COCC(=O)N1CCN([C@@H]2C[C@@H]3CO[C@H](c4ccccc4)C[C@@H]3C2)CC1	24	31
Cc1ccc2nc(C)c(C(=O)NC3CC(=O)N(CCc4ccccc4)C3)n2c1 (centres undefined)	6	5
CCOCCCN(CC(=O)N(Cc1ccc2c(c1)OCO2)Cc1sccc1C)C(=O)Nc1ccccc1C	7	7
CCC1CCCN(Cc2ccc(-n3ccnc3)nc2)C1 (centres undefined)	2	0
O=C1COc2cc(C(=O)N(Cc3ccc(C(=O)NC4CC4)cc3)C3CC3)ccc2N1	-1	-3
O=C(Cc1ncc[nH]1)c1ccccc1	4	1
O=C(COC(=O)C1CC1c1ccc(Cl)cc1)C1CC1 (centres undefined)	6	2
CCOC(=O)c1c(NC(=O)C2C(C=C(Cl)Cl)C2(C)C)sc(C(=O)Nc2ccccc2)c1C (centres undefined)	-5	-8
Cc1ccc(C2(O)CCN(C(=O)c3c(-c4ccccc4)noc3C)CC2)nc1	1	-2
C#CCOCC(O)CN(Cc1ccc(OC)cc1)Cc1cccc(C)c1 (centres undefined)	-3	11
CCCn1cnnc1CN(C)Cc1nc(-c2ccco2)oc1C	-5	-11
CCOc1ccc(-c2nc(CN3N=NC4C(=O)N(c5cc(C)cc(C)c5)C(=O)C43)c(C)o2)cc1 (centres undefined)	5	-5
O=C(NCc1ccccn1)Nc1cccc(F)c1	-1	-3
Cc1ccc(S(=O)(=O)N(C)CC(=O)c2cc(C)n(C3CC3)c2C)cc1	4	2
O=C(O)CSc1ccc(S(=O)(=O)C(F)(F)F)cc1[N+](=O)[O-]	-5	-8
O=C(NCCn1ncc2c(N3CCCC3)ncnc21)C1CC1	-1	-2
O=C(C1CCC1)N1CCCN(Cc2cccc3cnccc23)CC1	5	9
O=S(=O)(c1cc(Cl)c(Cl)s1)N1CCn2cncc2C1	3	-2
O=c1c([N+](=O)[O-])c(NCCc2ccccc2)c2ccccc2n1-c1ccccc1	-6	-10
N#CCS(=O)(=O)c1cc(Cl)ccc1Cl	6	5
CCCS(=O)(=O)N1CCN(c2ncnc3c2nnn3-c2ccc(OC)cc2)CC1	-4	-12
CCNc1cc(NCCNC(=O)C(C)(C)C)nc(C)n1	2	0
Cc1ccc(Cc2nc(N3CCCN(C(=O)C4CC4)CC3)c3c(C)nn(-c4ccccc4)c3n2)cc1	9	10

By substructure: the entries above containing a Cl atom.
SMILES	NPYLR7 ag	NPYLR7 ag max-min
Cc1onc(-c2ccccc2Cl)c1C(=O)N(Cc1ccccc1)C(C)C	5	6
COc1cc(C=Nn2c(-c3ccc(Cl)cc3)n[nH]c2=S)ccc1OC(C)=O	-8	-10
Cn1ccsc1=NC(=O)C1(c2cccc(Cl)c2)CC1	16	10
COc1ccc(S(=O)(=O)NCC2CCCO2)cc1N1CCN(C(=O)c2cc(Cl)cc(Cl)c2)CC1 (centres undefined)	-4	9
O=C(NCc1ccncc1)c1coc(CN(CCc2c[nH]c3ccccc23)Cc2ccc(Cl)cc2)n1	19	16
O=C(COC(=O)C1CC1c1ccc(Cl)cc1)C1CC1 (centres undefined)	6	2
CCOC(=O)c1c(NC(=O)C2C(C=C(Cl)Cl)C2(C)C)sc(C(=O)Nc2ccccc2)c1C (centres undefined)	-5	-8
O=S(=O)(c1cc(Cl)c(Cl)s1)N1CCn2cncc2C1	3	-2
N#CCS(=O)(=O)c1cc(Cl)ccc1Cl	6	5

3 entries from above, ordered by length of the SMILES, ascending.
SMILES	NPYLR7 ag	NPYLR7 ag max-min
CCCn1cnnc1CN(C)Cc1nc(-c2ccco2)oc1C	-5	-11
CN(C)S(=O)(=O)c1ccc(N=Nc2sc(N)nc2-c2cc(F)ccc2F)cc1	0&5	-3&3
CCOCCCN(CC(=O)N(Cc1ccc2c(c1)OCO2)Cc1sccc1C)C(=O)Nc1ccccc1C	7	7

Other entries follow:
SMILES	NPYLR7 ag	NPYLR7 ag max-min
CCS(=O)(=O)N1CCN(c2nccc(N3CCCC(O)C3)n2)CC1 (centres undefined)	12	12
Cc1nccn1Cc1ccccc1NC(=O)c1ccc(C2CCCN2)s1 (centres undefined)	4	-1
C=CCC(O)(CC=C)c1ccc(CN(Cc2ccc(OC)cc2)C2CC2)o1	-5	16
COCCOc1nc(-c2cccc(C(F)(F)F)c2)n(-c2ccc(NC(=O)Cc3ccc(F)cc3)cc2)n1	20	22
O=C(NCc1cccs1)C1CCCN(C2CCN(Cc3ccncc3)CC2)C1 (centres undefined)	6	1
Cc1cnc(N2CCc3[nH]nc(C(C)C)c3C2)nc1N(C)C	0	6
O=C(C1CCC1)N(Cc1cccc(F)c1)CC1CC(c2ccccc2Cl)=NO1 (centres undefined)	8	22
COCC(=O)Nc1c(-c2ccc(OC)c(OC)c2)nc2ccc(C)cn12	-2	0
CC1CCN(CC(=O)N2N=C(c3ccc(F)cc3)CC2c2ccccc2F)CC1 (centres undefined)	-1	3
CCCc1c(C(=O)NCc2ccccn2)cnn1-c1ccc(C)cc1	22	34
COc1cccc(-c2nc(SC3CCCC3)c3c(=O)n(C)c(=O)n(C)c3n2)c1	-5	-7
Nc1nc2cc(Cl)cc(Br)c2o1	1	12
NC(=O)C(Nc1ccc2c(c1)OCCCO2)c1ccccc1 (centres undefined)	6	4
O=S(=O)(c1ccccc1)N1CCCC(OCc2cccc(C(F)(F)F)c2)C1 (centres undefined)	-3	1
O=C(NS(=O)(=O)c1cccs1)c1cc(Cl)c2c(c1)OCCO2	-23	-22
O=C1NCCNC1c1cccs1 (centres undefined)	-19	-29
CCOC(=O)N1CCN(S(=O)(=O)Nc2cccc(N3CCCC3=O)c2)CC1	9	9
CC(C)(C)NC(=O)c1ccn(-c2ccccc2Cl)n1	-1	-2
Cc1cc(C(=O)N2CCN(Cc3cccc(O)c3)CC2)ccc1F	7	3
COC(=O)[C@@H]1C[C@@H](NC(=O)NCc2ccccc2F)CN1C	10	8
O=c1ccc(-c2cccnc2)nn1CCNS(=O)(=O)c1ccccc1Cl	4	-5
Cc1ccccc1-c1cc(O)c2c(c1)CN(Cc1nccs1)CCO2	0	-4
CCOC(=O)C1CCN(Cn2[nH]c(=O)ccc2=O)CC1	-1	4
O=C(c1ccc(F)cc1)N1CCN(C(=O)c2ccco2)CC1	10	6
CCOC(=O)C1=C(C)N=c2s/c(=C/c3ccc4c(c3)OCO4)c(=O)n2C1c1ccc(OC(C)=O)cc1 (centres undefined)	4	6

Entries of single compounds from above:
O=C(NCc1cccs1)C1CCCN(C2CCN(Cc3ccncc3)CC2)C1 (centres undefined) as listed: NPYLR7 ag = 6; NPYLR7 ag max-min = 1
O=C(NS(=O)(=O)c1cccs1)c1cc(Cl)c2c(c1)OCCO2 as listed: NPYLR7 ag = -23; NPYLR7 ag max-min = -22
CC(C)(C)NC(=O)c1ccn(-c2ccccc2Cl)n1 as listed: NPYLR7 ag = -1; NPYLR7 ag max-min = -2

(next part)
SMILES	NPYLR7 ag	NPYLR7 ag max-min
COCCN(Cc1ccc(C)cc1)Cc1c(C)nn(C)c1Cl	5	1
C=c1onc(-c2ccccc2)c1=c1[nH]/c(=C\c2ccc(F)cc2)c(=O)o1	-2	-8
Cc1ccc(C(NC(=O)NCCC(=O)N2CCCCC2)C2CC2)cc1 (centres undefined)	1	0
CCOC(=O)C1(Cc2ccc(OC)cc2)CCN(C(=O)c2ccsc2)CC1	-3	-6
N#Cc1ccc(CS(=O)(=O)Cc2ccccc2F)cc1	19	15
NCc1ccc(CNC2CCC3(CCNCC3)CC2)cc1	1	2
O=C(CN1C(=O)c2ccccc2S1(=O)=O)NC1CC1	15	11
Cc1nn(-c2ccc(N3CCN(C(=O)Cc4ccccc4)CC3)nn2)c(C)c1C	-5	-12
COC(=O)C(NC(=O)C1=COCCC1)c1ccc(OC)c(OC)c1 (centres undefined)	0	1
COCCOc1ccccc1-n1c(C)cn2c3c(=O)n(C)c(=O)n(C)c3nc12	-2	18
N#Cc1ccccc1CNc1ccc(Br)cc1F	5	1
CC1(C(=O)NCCCN2CCCC2=O)CCN1Cc1ccc(-c2ccccc2)o1 (centres undefined)	8	1
COC(=O)c1ccc(CN2C(=O)C(C)ON=C2c2ccccc2-c2ccco2)o1 (centres undefined)	10	5
O=C(NCC(F)(F)F)C1CSCN1C(=O)CCc1ncc(-c2ccc(Cl)cc2)o1 (centres undefined)	-2	-5
C=CCNC(=O)NC(=O)CSc1nnc(-c2ccccc2)o1	-5	-10
CS(=O)(=O)c1ccc(C(=O)N2CCN(c3ccc(O)cc3)CC2)cc1	-6	-6
O=C(CCn1c(=O)oc2ccccc21)NC1=NCCS1	2	7
COCCCn1ccnc1-c1ccc(-n2cccn2)cc1C	5	3
COc1ccc(Cl)cc1N1CCN(c2nnc(C(=O)NN3CCOCC3)c3ccccc23)CC1	2	-2
CN(C(=O)c1cccc(-c2ccco2)c1)C1CCCN(Cc2ccccc2F)C1 (centres undefined)	0	-1
COc1ccccc1S(=O)(=O)NCc1ccccc1F	-6	-7
CC(Cc1cccnc1)NC(=O)C1(N2CCCCC2)Cc2ccccc2C1 (centres undefined)	3	-1
CC(C)c1nc(CN(C)C(C)C(=O)Nc2nccs2)cs1 (centres undefined)	-5	-8
Cc1nc(C)c(CCC(=O)NC(C)CCC(C)C)c(=O)[nH]1 (centres undefined)	3	1
CCN(CCn1cccn1)C(=O)c1ccc2c(c1)nnn2C	3	-6

(list continues)
SMILES	NPYLR7 ag	NPYLR7 ag max-min
CCOC(=O)C1CCN(C(=O)c2c(-c3ccccc3Cl)noc2C)CC1	3	5
CC(C)(C)OCC1CN(CCOc2ccccc2)S(=O)(=O)c2cnccc2O1 (centres undefined)	0	3
CC(C)n1c2c(=O)n(C)c(=O)n(C)c2n2c(-c3ccc(F)cc3)nnc12	8	3
Cc1ccc(OCCOCCOc2ccc(/C=N\n3cnnc3)cc2)cc1	6	6
O=C(c1coc(CN(Cc2ccc(F)cc2)Cc2cccc(Oc3ccccc3)c2)n1)N1CCCC1	2	14
CC(=O)c1cccc(S(=O)(=O)N2CCC(C(=O)NC(c3ccccc3)c3cccs3)CC2)c1 (centres undefined)	-6	-8
Cc1cc(CN[C@@H]2CC[C@@H]3C[C@@H]2[C@@H](O)CO3)n(C)n1	13	25
NC(=S)CC(=S)N1CCOCC1	0	0
CCn1ncc(Cl)c1C(=O)N(Cc1ccsc1)CC1CCCO1 (centres undefined)	-3	12
COc1ccc2oc(=O)n(C3CCN(C(=O)c4ccccc4OC)CC3)c2c1	-6	7

Screens (PubChem)

These rows are one share of the data, so the mix of outcomes need not match the whole.
